# BJeLR lethal = MLPCN primary cell-based screen for lethality selective to Ras in HRASV12 cells | BJeLR (HRASV12) viability, CellTiter-Glo ATP luminescence, 48 h; reference of the scale not given here | inhibition, % (concentration not given with the values) | actives 0.17% (n = 300,000);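 active = replicate mean above 50%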;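 note: 50 nL library stock added to about 25 µL; numbers are from one replicate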
# Sa RN4220 lethal = growth inhibition of S. aureus RN4220, primary screen, OD600 | actives 0.33% (n = 330,000) | 16 h | inhibition, % (test concentration not listed) | AID 1259311, 2017;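 active = z-score of -3 or lower and OD600 up to 0.18 on both plates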;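 note: plate controls were untreated cells for no effect and reference antibiotic for full effect; stock transfer was 100 nL into about 80 µL; one replicate is shown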
# Autofluor counter = flagged as autofluorescent in microsphere protease counterscreen; compound autofluorescence counterscreen, microsphere flow cytometry; hits give high values; fluorescence intensity (test concentration not listed); actives 3.1% (n = 360,000); AID 624483;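 active = at least 3 SD above the mean of all compounds, about 16000 in these data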;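 note: 100 nL of 1 mM stock went into each well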
# Sa ugtP lethal = growth inhibition of ugtP-null S. aureus, primary screen, RN4220 ugtP deletion, OD600 | growth inhibition, % (test concentration not listed) | 16 h; some inactives read as strong as hits | actives 0.54% (n = 330,000);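 active = z-score under -3 and OD600 up to 0.15 on both plates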;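 note: plate controls were untreated wells for no effect and antibiotic for full effect; wells of about 80 µL received 100 nL stock; the first replicate is given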
# Mtb hypoxia inh = PubChem AID 1159583 | M. tuberculosis hypoxia-regulated fluorescent reporter, fluorescence | fluorescence inhibition, % (no concentration beside the values) | actives 0.1% (n = 300,000);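 active = 35 to 45% if threefold the growth effect, above 45% if 1.5-fold the growth effect; inactive = the rest, general growth blockers included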;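 note: wells of about 50 µL received 100 nL stock; 0% = vehicle wells and 100% = reference inhibitor wells; whole bacteria with a GFP reporter of the hypoxia response; strong numbers were not always called active; many hits fall short of the cut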
# PrP 5UTR inh = inhibition of PrP 5' UTR reporter expression | cell-based PrP 5' UTR mRNA reporter, plate reader | actives 0.35% (n = 340,000) | inhibition, % (test concentration not listed);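 active = every replicate at 50% or more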;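 note: 0 = median of the neutral control wells; tested in H4 reporter cells; numbers are from one replicate; inactives centre near -14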
# Mtb hypoxia inh growth = further read-out of Mtb hypoxia inh, marked with its call; growth inhibition, %; measured here: M. tuberculosis growth (absorbance);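 0% = vehicle and 100% = reference antibiotic; read after six days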
# The depositor's hits bear a star; nt = not tested or not shown; & = joins results of further samples.
item	canonical_smiles	BJeLR lethal	Sa RN4220 lethal	Autofluor counter	Sa ugtP lethal	Mtb hypoxia inh	Mtb hypoxia inh growth	PrP 5UTR inh
1	CCOc1nc(NC(=O)NC(=O)c2ccccc2)nc(-c2ccccc2)n1	4	2.1	7276	-17	-13	-7	-3
2	COc1cc(C2C(C#N)=C(N)OC3=C2C(=O)CC(C)(C)C3)cc([N+](=O)[O-])c1O (stereo not given)	3	-1.0	4515	-6	3	1	0
3	COc1cc2c(cc1OC)C(C)N(C(=O)CCc1c[nH]c3ccccc13)CC2 (stereo not given)	14	3.2	3641	14	7	12	-14
4	Cc1ccc(SCC(=O)Nc2ccc(N3CCN(C)CC3)c(F)c2)c(C)c1	-3	-1.3	4290	6	12	9	-28
5	O=S(=O)(NCCc1nnc2ccc(SCc3cccnc3)nn12)c1ccccc1	-1	2.9	4654	4	11	8	-10
6	CC(=O)Nc1c(-c2ccccc2)c2cc(Br)ccc2[nH]c1=O	1	-2.5	3866	8	11	8	-18
7	N#C/C(=N\Nc1cccc(F)c1)C(=O)C1CC1	12	nt	5538	nt	nt	nt	-80
8	Cc1c(Cl)cccc1NC(=O)CCCN1C(=O)c2cccnc2C1=O	2	0.5	3995	3	9	0	-11
9	COC(=O)c1c(NC(=O)CN(c2ccccc2)S(C)(=O)=O)sc2c1CCCC2	4	-2.6	2511	-9	-9	10	3
10	CCn1ccnc1CN(C)Cc1nc(CCC(C)C)no1	-7	6.6	4462	0	4	11	-13
11	CCOC(=O)N1CCC(N2C(=O)c3ccc(C(=O)NCCOC)cc3C2=O)CC1	-5	2.0	3851	-2	1	4	-4
12	O=C(O)CSc1nnc(SCc2cccc3ccccc23)s1	2	9.7	10225	-1	4	9	-32
13	COc1ccc(-c2ccoc2)cc1[C@H]1[C@H]2C=CC[C@@H](C)[C@@H]2C(=O)N1Cc1ccccc1	4	nt	3479	nt	nt	nt	-1
14	Cc1ccc(NC(=O)Cn2nc(C)c([N+](=O)[O-])c2C)cc1C	-2	-0.4	4319	0	-1	1	-31
15	N/C(=C/C(=O)c1ccccc1O)C(F)(F)F	-10	4.4	2401	3	7	4	-23
16	CCOc1ccccc1NC(=O)CCSc1nc2n[nH]c(C)c2c(=N)n1-c1ccccc1Cl	2	9.4	11620	-3	8	6	-15
17	Cn1nnnc1NC(=O)c1ccccc1Cl	-2	1.8	3804	-1	-4	8	-10
18	O=[N+]([O-])c1ccc(OCCN2CCNCC2)cc1	2	nt	2460	nt	nt	nt	-12
19	CC1(C)CC(n2c(=S)[nH]c3ccccc3c2=O)CCO1 (stereo not given)	0	-3.7	2845	2	nt	nt	-10
20	CCCCN(CCCNC(=O)C1CCN(S(=O)(=O)CC)CC1)c1ccccc1	6	-0.5	9544	-2	8	6	-19
21	CCCN(C(=O)CSc1ccccc1C(=O)O)C1CCS(=O)(=O)C1 (stereo not given)	nt	5.5	4006	4	-4	3	-15
22	CC(C)C(NC(=O)c1ccccc1)C(=O)NCC(c1ccccc1)N(C)C (stereo not given)	14	2.6	1996	1	-1	-4	-24
23	NS(=O)(=O)c1cc(Cl)c(NC(=O)COC(=O)c2ccccn2)c(Cl)c1	nt	2.6	3701	2	5	8	-12
24	C=CCOC1=CS(=O)(=O)N(Cc2ccc(Br)cc2)c2ccc(Br)cc21	nt	0.2	3859	-8	7	4	-14
25	O=C(C1CC2C=CC1C2)N1CCN(c2ccccc2)CC1 (stereo not given)	6	0.8	4217	10	5	6	-19
26	Cc1ccc(-c2nnc(Nc3ccc(C(=O)N(C)C)cc3)c3ccccc23)cc1S(=O)(=O)NCC1CCCO1 (stereo not given)	-9	1.7	2358	-1	13	13	-3
27	CSc1nc(C)c2cc(C)oc2n1	5	1.2	4947	1	nt	nt	4
28	NS(=O)(=O)c1ccccc1	20	6.5	4262	1	-11	8	-17
29	Cc1ccc(S(=O)(=O)Nc2ccc(C(=O)NCCCN3CCOCC3)cc2)cc1[N+](=O)[O-]	0	2.5	6522	3	9	5	-18
30	CCCCCCCCCC(=O)N/N=C(\C)c1cccnc1	4	nt	3763	nt	nt	nt	-11
31	COc1cc(-c2cccs2)cc(=O)c2c(C)oc(C)c12	1	-2.5	6348	-8	nt	nt	-13
32	O=C(Cn1cnnn1)Nc1ccccc1Cc1ccccc1	2	1.5	4238	0	6	8	-20
33	OCCC1CN(Cc2cccn2-c2cccnc2)CCN1C1CCCCC1 (stereo not given)	-7	-3.8	4264	-5	-1	12	-21
34	CCOC(=O)CC(NC(=O)c1cccs1)c1ccc(OCC)cc1 (stereo not given)	-8	0.9	4338	7	4	10	1
35	Cc1cccc(N2CCN(C(=O)c3ccc4nccnc4c3)CC2C)c1 (stereo not given)	nt	3.7	3417	9	8	14	-8
36	COC(=O)CSc1nc(-c2ccc(C)cc2)c2c(c1C#N)CCCC2	-3	3.1	3259	-3	nt	nt	-4
37	CCCC[C@@H]1CNC(=S)N1CC1CCCCC1	5	nt	4276	nt	nt	nt	-18
38	O=c1[nH]c(CN2CCN(c3ccccc3)CC2)nc2ccccc12	7	0.3	2383	-1	6	9	-20
39	CN(C)C(=S)Nc1ccc(S(=O)(=O)N2CCCCC2)cc1	-5	1.5	3354	4	5	6	-8
40	Cc1ccccc1C(=O)Nc1nnc(SCC(=O)NCc2ccco2)s1	-5	-1.0	5180	8	6	10	-23

# Pulled by structure from above:
item	canonical_smiles	BJeLR lethal	Sa RN4220 lethal	Autofluor counter	Sa ugtP lethal	Mtb hypoxia inh	Mtb hypoxia inh growth	PrP 5UTR inh
26	Cc1ccc(-c2nnc(Nc3ccc(C(=O)N(C)C)cc3)c3ccccc23)cc1S(=O)(=O)NCC1CCCO1 (stereo not given)	-9	1.7	2358	-1	13	13	-3
32	O=C(Cn1cnnn1)Nc1ccccc1Cc1ccccc1	2	1.5	4238	0	6	8	-20

# Carrying on:
item	canonical_smiles	BJeLR lethal	Sa RN4220 lethal	Autofluor counter	Sa ugtP lethal	Mtb hypoxia inh	Mtb hypoxia inh growth	PrP 5UTR inh
41	Cn1c(=O)[nH]c2nnc(-c3ccc(Cl)c(Cl)c3)nc2c1=O	-1	11	5786	-11	-11	1	-29
42	CCOC(=O)C1C2COc3ccccc3C2N2C(=O)CN(CC3CCCO3)C(=O)[C@@]12C (stereo not given in full)	nt	5.1	nt	11	-3	-1	nt
43	COc1cccc(-c2cc3nc4c(c(N5CCC6(CC5)OCCO6)n3n2)CCC4)c1	-1	14	2917	-13	-1	-5	7
44	O=C(CCC1CCCN(Cc2ccc3c(c2)OCCO3)C1)NCc1ccc(F)c(F)c1 (stereo not given)	-4	0.3	2301	9	-4	5	-28
45	CCN(CC(=O)Nc1ccc(NC(C)=O)cc1)c1ccc(C(F)(F)F)cn1	-7	1.7	1947	9	12	5	-8
46	CC(C)CNC(=O)c1ccc(COc2ccc(Cl)cc2Cl)o1	-7	20	3266	-8	14	17	-3
47	Cc1ccnc(NC(=O)/C=C/c2ccccc2[N+](=O)[O-])c1	3	2.1	nt	6	2	-2	nt
48	C=CCNC(=S)N1CCc2[nH]c3ccccc3c2C1	12	3.2	nt	10	20	8	nt
49	Cc1cc(/C=C(\C#N)C(=O)NCC2CCCO2)c(C)n1-c1ccc(Cl)cc1 (stereo not given)	5	-3.2	9966	-4	3	8	-28
50	CCC(=O)NC(=S)Nc1cccc(NC(=O)c2ccccc2)c1	4	5.2	2697	15	13	-5	-11
51	CCN1CCN(Cc2ccc(NC(=O)c3cc(NC(=O)C4=NN(c5ccccc5)C(=O)C4)cc(OC)c3)cc2C(F)(F)F)CC1	-2	0.1	3175&3272	-17	-5	0	-28
52	COc1ccc2c(c1)CCN(C(=O)CCl)C2C1C(=O)CCCC1=O (stereo not given)	5	6.2	2564	-2	-1	4	-22
53	CC1CCCC(C)N1/N=C/c1ccc(C#N)cc1 (stereo not given)	-6	nt	3938	nt	nt	nt	-15
54	Cc1nc(SCC(=O)Nc2ccc(Cl)cc2[N+](=O)[O-])nc(C)c1C	3	4.6	2092	0	4	8	-17
55	COCCn1c(SCC(=O)NCc2ccccc2)nnc1-c1ccco1	-7	0.6	9167	-3	2	5	-26
56	Cc1ccnc(NS(=O)(=O)c2ccc(-n3cccn3)cc2)c1	5	2.6	5318	2	-1	4	-11
57	O=C1NC(c2ccccc2)(C(F)(F)F)SC2=NCCCN12 (stereo not given)	-9	5.6	8932	-1	5	6	-16
58	O=C(COC(=O)c1ccc(S(=O)(=O)N2CCCCC2)cc1)NCc1ccc(F)cc1	nt	0.5	4674	1	4	5	-35
59	CC(=O)Nc1ccc(S(=O)(=O)NC(CC(=O)NCCCN2CCOCC2)C(C)C)cc1 (stereo not given)	-4	0.1	4190	10	nt	nt	-22
60	CN(C)C/C=C/C(O)(c1ccccc1)c1ccccc1	1	2.4	4310	7	13	4	-15
61	Cc1csc(NC(=O)C(CC(C)C)NS(=O)(=O)c2ccc3c(c2)oc(=O)n3C)n1 (stereo not given)	0	5.9	4914	12	4	2	-16
62	N/C(=N\OS(=O)(=O)c1ccc2ccccc2c1)c1ccncc1	8	1.2	3981	-1	nt	nt	-25
63	O=C(Nc1ccc2c(c1)C(=O)NC2=O)c1cccc(Cl)c1	8	2.4	5774	1	3	-1	-12
64	CCOc1ncccc1C(=O)OCC(=O)NC1CC1	-2	2.5	2019	-2	-6	4	-12
65	CCc1ccc(-c2nc(CN3CCC(C(=O)N4CCN(c5ccccn5)CC4)CC3)c(C)o2)cc1	nt	4.5	6588	5	13	18	-22
66	CN(C)CCn1c2c(c(SCC(=O)NCc3ccccc3)nc1=O)CCC2	16	-1.7	5930	-2	4	2	-14
67	Cc1c(NC(=O)/C(C#N)=C/c2ccccc2)c(=O)n(-c2ccccc2)n1C	4	3.7	3090	3	0	0	-4
68	CC(C)NCCOc1cccc(Br)c1	-1	-3.6	nt	1	15	-3	-5
69	CC(C)N1CC2(c3ccccc3)CN(C(C)C)CC(c3ccccc3)(C1)C2=O	7	1.0	2406	3	14	13	-11
70	CC(=O)Nc1ccc(OC(=O)N(C)c2ccc(C)cc2)cc1	4	4.5	4181	10	7	5	4
71	CCOc1ccc(NC(=S)NC(C)C(c2ccccc2)N2CCN(C)CC2)cc1 (stereo not given)	-1	-0.2	4410	3	-1	-10	-19
72	Cc1ccnc(NS(=O)(=O)c2ccc(NC(=O)c3cc(-c4ccc(Br)cc4)nc4ccccc34)cc2)n1	7	nt	10942	nt	nt	nt	-43
73	N#CC1=C(SCC(=O)Nc2ccccc2)NC(=O)CC1c1ccco1 (stereo not given)	-1	3.3	10436	3	7	-4	-90
74	Nc1nc(Br)c2c(F)cccc2c1-c1ccc(Cl)cc1	1	-2.1	8331	-7	1	-2	2
75	CN(C)c1ccc(C(CNS(=O)(=O)c2ccc3ccccc3c2)N2CCOCC2)cc1 (stereo not given)	14	12	6007	15	10	1	-25
76	COc1ccc(N(C(=O)c2ccco2)C(C(=O)NC2CCCC2)c2cccs2)cc1 (stereo not given)	8	1.5	4818	1	6	4	-8
77	CC1(C)CC(=O)C2=C(C1)Nc1cc(Cl)ccc1S2	6	7.0	3996	2	9	9	-10
78	COC(=O)Cc1c[nH]c2cccc(OCC(O)CN(Cc3ccc([N+](=O)[O-])cc3)C(C)(C)C)c12 (stereo not given)	9	17	24016*	-1	1	5	-13
79	CCCCCCc1ccc(N2CC(CCCCC)C(CC(=O)NCc3ccc(OC)cc3)C2=O)cc1 (stereo not given)	nt	-4.0	nt	9	21	9	nt
80	O=C(N/N=C/c1ccc(C(=O)O)cc1)C1=NNC(c2ccccc2)(c2ccccc2)C1	4	nt	2461	nt	nt	nt	-18
81	CCOC(=O)N1CCC(C(N)=O)CC1	-8	1.1	4316	0	-1	8	-20
82	Cc1cc2c(cc1S(=O)(=O)Nc1ccc(F)cc1)n(C)c(=O)c(=O)n2C	-10	0.3	6020	4	-5	-3	-5
83	N#CC(=C=[N-])/C=C(\C(=O)c1ccccc1)[n+]1ccccc1	-8	nt	4155	nt	nt	nt	-29
84	COc1ccc(-c2cccc([C@H]3[C@@H]4C=CC[C@@H](C)[C@@H]4C(=O)N3Cc3ccccc3)c2)cc1	nt	-1.7	3283	0	-9	4	-16
85	COC(=O)c1ccc(COc2ccccc2/C=C(\C#N)C(=O)Nc2ccccc2C)cc1	-1	4.2	8809	-1	-4	-3	3
86	Oc1c(C(c2ccccn2)N2CCCCC2)cc(Cl)c2cccnc12 (stereo not given)	11	-2.3	4352	7	7	8	1
87	C/C(N)=C(/C#N)C(=O)COC(=O)COc1ccc(Cl)cc1C	-3	nt	21745*	nt	nt	nt	-5
88	O=C(NN=Cc1ccsc1)C1CC1	nt	9.4	nt	10	4	15	nt
